GIV Gai3 FP – blocks GIV peptide binding to rat Galpha-i3; Galpha-i3/FITC-GIV peptide fluorescence polarization, 90 min; stronger effect = lower value; scaled: aluminum fluoride 0%, vehicle 100%; P08753; percent of control (FP), % (concentration not given with the values); actives 0.42% (n = 210,000);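 active = replicate mean at 85% of control or lower, very high polarization wells dropped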;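 also: wells of about 15 µL received 100 nL stock; the first replicate is given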
Target sequence (P08753 whole entry, looked up): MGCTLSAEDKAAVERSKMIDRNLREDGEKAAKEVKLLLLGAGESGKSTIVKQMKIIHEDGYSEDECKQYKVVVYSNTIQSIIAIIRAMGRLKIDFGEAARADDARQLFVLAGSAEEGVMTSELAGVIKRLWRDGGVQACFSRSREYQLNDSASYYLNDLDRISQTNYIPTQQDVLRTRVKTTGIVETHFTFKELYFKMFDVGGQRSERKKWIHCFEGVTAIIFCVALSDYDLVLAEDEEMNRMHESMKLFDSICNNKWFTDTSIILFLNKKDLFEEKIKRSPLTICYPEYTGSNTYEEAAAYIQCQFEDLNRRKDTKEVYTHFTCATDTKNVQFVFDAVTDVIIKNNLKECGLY
HCMV NEC inh – inhibitors of HCMV UL50-UL53 nuclear egress complex interaction | HTRF UL50-UL53 interaction, normalized percent inhibition | inhibition, % (no concentration beside the values) | actives 0.15% (n = 190,000) | AID 1918969;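 active = both replicates at 50% or more, plus weaker picks with an unusually low signal ratio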;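 also: stock transfer was 100 nL into about 20 µL; 0% = negative control wells and 100% = wells with untagged competitor protein; inactives centre near -12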
Sa growth inh – inhibitors of Staphylococcus aureus growth at 42 °C; S. aureus RN4220 growth, OD600, 20 h; stronger effect = lower value; relative growth, % (test concentration not listed); actives 0.53% (n = 170,000);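 active = growth at 42 °C up to 50% and 20 or more points under that at 30 °C, or under 10% at both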;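 also: 300 nL library stock went into each well; scaled to the means of positive and negative controls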
Sa growth inh second temp – further read-out of Sa growth inh, marked with its call; relative growth, %; measured here: growth at 30 °C;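 optical density after 20 h as mean of two plates; 100% = untreated growth and lower means inhibition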
* = called active by the depositor; · = no result given; & = joins results of further samples.

nr | SMILES | GIV Gai3 FP | HCMV NEC inh
1 | COc1cccc(CN2C(=O)c3ccccc3Sc3ccc(C(=O)NCCCN4CCC(C)CC4)cc32)c1 | 106 | -22
2 | COc1ccc(CCN(C)C(=O)COc2ccc(NC(C)=O)cc2)cc1OC | · | 19
3 | Oc1c(Cl)cc(Cl)c(Cl)c1Cc1c(O)c(Cl)cc(Cl)c1Cl | · | 28&-76
4 | COCSc1nnc(-c2ccncc2)n1-c1ccc(C)c(C)c1 | · | -6
5 | COc1ccccc1CNC(=O)Cc1csc2nc(-c3ccc(F)cc3)cn12 | 108 | ·
6 | O=C1CC2C(=O)NCCN2C(=NC(=O)c2ccc(Cl)cc2)N1 (centres undefined) | 100 | 5
7 | CCN(CC)C(=O)c1sc(NC(=O)c2c(-c3ccccc3)noc2C)c(C(=O)OC(C)C)c1C | 107 | -3
8 | Cc1ccc(-c2ccc(CCC(=O)O)[nH]2)cc1 | · | -13

nr | Sa growth inh | Sa growth inh second temp
1 | · | ·
2 | 123 | 96
3 | 0.0* | -0.9*
4 | 86 | 97
5 | 120 | 81
6 | 102 | 78
7 | · | ·
8 | 82 | 81

Carrying on.
nr | SMILES | GIV Gai3 FP | HCMV NEC inh
9 | O=C(CCC(=O)Nc1ccc(F)cc1)Nc1ccc(F)cc1 | · | 7
10 | NC(=O)CSc1nc(SCC(N)=O)c2c3c([nH]c2n1)CCCC3 | 111 | -1
11 | CCOC(=O)c1c(N)sc(N)c1C(=O)OCC | 107 | -19
12 | Cc1ccc(C)c2c1NC(c1ccc(Br)cc1)C1CC=CC21 (centres undefined) | 107 | -3
13 | COc1cccc2c1c(NC(=O)CSCC(=O)O)nn2C | 101 | -19
14 | O=C(NCC(c1cccs1)N1CCOCC1)c1cc(F)cc(F)c1 (centres undefined) | · | 4
15 | O=C1CCn2cccc21 | · | -33
16 | CCCCOc1ccc(CNC(=O)c2ccc(NC(=O)N3CCCCc4ccccc43)cc2)cc1 | 95 | ·

nr | Sa growth inh | Sa growth inh second temp
9 | 74 | 87
10 | 114 | 96
11 | 52 | 37
12 | · | ·
13 | 97 | 94
14 | 111 | 96
15 | 98 | 76
16 | 90 | 88

Other records.
nr | SMILES | GIV Gai3 FP | HCMV NEC inh
17 | COc1ccccc1N1CCN(C(=O)c2cnn(C(C)(C)C)c2C2CCN(C(=O)OC(C)(C)C)CC2)CC1 | 107 | ·
18 | O=C(c1cnc2ccc(Cl)cc2c1S(=O)(=O)c1ccc(Br)cc1)N1CCSCC1 | 104 | 8
19 | CCc1cc(=O)oc2cc(C)c3c(C(C)(C)C)coc3c12 | 101 | ·
20 | CCc1ccc(NC(=O)CCCN2C(=S)NC(C)(C)CC2C)cc1 (centres undefined) | 97 | ·
21 | Cc1ccc(Cl)cc1NC(=O)c1oc2ccc(S(=O)(=O)N3CCCCC3)cc2c1C | 103 | ·
22 | CC1=C(C(=O)Nc2ccccc2)C(c2ccc(C)o2)NC(=S)N1 (centres undefined) | 99 | -18
23 | CCOC(=O)C(Cc1ccccc1)C(=O)Nc1cc(N(C)C)ccc1C (centres undefined) | 101 | -4
24 | CC(=O)Nc1ccc(OCCCNC(=O)C2=NNC(=O)CC2)cc1 | 98 | -7

nr | Sa growth inh | Sa growth inh second temp
17 | 125 | 108
18 | · | ·
19 | 99 | 91
20 | 112 | 77
21 | 85 | 97
22 | 105 | 86
23 | 104 | 109
24 | 98 | 97

Later entries.
nr | SMILES | GIV Gai3 FP | HCMV NEC inh
25 | COc1ccc(NC(=O)C(=O)NCCc2csc3nc(-c4ccccc4F)nn23)cc1OC | 109 | ·
26 | CCC(C)NC(=O)C(C)Sc1ccccc1 (centres undefined) | 98 | -4
27 | Cc1ccc(CSc2nnc(CCNC(=O)OC(C)(C)C)o2)cc1 | 99 | 4
28 | CCOC(=O)C1=C(C)N=c2s/c(=C\c3ccc(Br)cc3)c(=O)n2C1c1ccc2c(c1)OCO2 (centres undefined) | 97 | -14
29 | CC(CN1CCN(Cc2ccccc2)CC1)N(C(=O)C1CCC1)c1ccccn1 (centres undefined) | 100 | 36
30 | COc1ccccc1Nc1nc(N)nc(N)c1S(=O)(=O)c1ccccc1 | 105 | 10
31 | O=C(CSc1nnc(C2COc3ccccc3O2)n1-c1ccccc1)Nc1ccc2c(c1)OCCO2 (centres undefined) | · | -9
32 | CCOC(=O)C1=C(C)NC(C)=C(C(=O)OCC)C1C(=O)OC | · | -10

nr | Sa growth inh | Sa growth inh second temp
25 | 106 | 89
26 | 107 | 95
27 | 108 | 105
28 | · | ·
29 | 96 | 86
30 | 100 | 96
31 | 116 | 87
32 | 106 | 88

Single values from the list:
cpd 22 in Sa growth inh second temp shows 86
cpd 26 in GIV Gai3 FP shows 98
cpd 30 in HCMV NEC inh shows 10
cpd 13 in GIV Gai3 FP shows 101
cpd 19 in GIV Gai3 FP shows 101
cpd 29 in GIV Gai3 FP shows 100

New compounds follow.
nr | SMILES | GIV Gai3 FP | HCMV NEC inh
33 | CN(C)C(=O)C(Sc1ccc(S(=O)(=O)N2CCCC2)cn1)c1ccccc1 (centres undefined) | · | -16
34 | CCCCCSc1nnc2c(n1)OC=Nc1ccccc1-2 | 100 | -151
35 | CCOc1ccc(NC(=O)c2cccc3c2C(=O)N(CC2CCCO2)C3)cc1 (centres undefined) | 109 | 4
36 | O=C(CN(Cc1ccc(Br)cc1)S(=O)(=O)c1ccccc1)Nc1ccccc1 | 101 | ·
37 | O=C(Nc1ccc2c(c1)OCO2)n1ncc2cc(Cl)ccc21 | 100 | -12
38 | Cc1oc2ncn(C)c(=O)c2c1C(=O)N1CCN(c2cccc(C(F)(F)F)c2)CC1 | 105 | ·
39 | CC(C)NC(=O)Cc1c(O)c2ccccc2[nH]c1=O | · | -1
40 | Cc1cc2oc(=O)c(CC(=O)O)c(C)c2c2occ(-c3ccc(F)cc3)c12 | 101 | -30

nr | Sa growth inh | Sa growth inh second temp
33 | 89 | 96
34 | 73 | 73
35 | 92 | 87
36 | 124 | 106
37 | · | ·
38 | 84 | 93
39 | 98 | 81
40 | 87 | 87

Further entries.
nr | SMILES | GIV Gai3 FP | HCMV NEC inh
41 | CCc1n[n+](CC(=O)c2ccccc2)c(N)s1 | · | -15
42 | CCOC(=O)C1=C(C)NC(=O)NC1c1cc(Br)c(OCc2ccccc2)c(OC)c1 (centres undefined) | 103 | 12
43 | CCC(=O)N1CCc2cc(Br)cc(S(=O)(=O)CCC(=O)NCc3ccc(Cl)cc3)c21 | 102 | 1
44 | O=S(=O)(NCC(c1ccco1)N1CCN(c2ccc(F)cc2)CC1)c1ccccc1 (centres undefined) | 91 | ·
45 | CN(C)CCNC(=O)c1cc(Sc2ccc(F)cc2)nc2ccccc12 | 105 | -7
46 | COc1ccc(C2=NN(S(=O)(=O)c3ccccc3)C(c3ccc(F)cc3)C2)cc1OC (centres undefined) | 105 | -20
47 | Cc1nn(C(C)(C)C)c2c1C(c1ccsc1)C1=C(CCCC1=O)N2 (centres undefined) | · | -18
48 | N#CCCN(Cc1cccnc1)S(=O)(=O)c1cccc(Cl)c1Cl | · | 6

nr | Sa growth inh | Sa growth inh second temp
41 | 118 | 82
42 | · | ·
43 | 101 | 92
44 | 89 | 86
45 | 94 | 83
46 | · | ·
47 | 96 | 91
48 | 118 | 98

Copied from above, entries 41–42
nr | SMILES | GIV Gai3 FP | HCMV NEC inh
41 | CCc1n[n+](CC(=O)c2ccccc2)c(N)s1 | · | -15
42 | CCOC(=O)C1=C(C)NC(=O)NC1c1cc(Br)c(OCc2ccccc2)c(OC)c1 (centres undefined) | 103 | 12

nr | Sa growth inh | Sa growth inh second temp
41 | 118 | 82
42 | · | ·

Next results.
nr | SMILES | GIV Gai3 FP | HCMV NEC inh
49 | Cc1ccc(N2CCN(C(=O)CCS(=O)(=O)c3ccc4c(c3)NC(=O)CO4)CC2)c(C)c1 | 100 | 2
50 | Cc1ccc(Sc2ncccc2NC(=O)c2ccc(C)cc2)cc1 | 101 | -5
51 | COc1ccc(-n2c(/C=C/c3c(C)[nH]c4ccccc34)nc3ccccc3c2=O)cc1 | 101 | 14
52 | Cc1ccc(NCC(=O)n2c3c(c4ccccc42)CCCC3)cc1Cl | 99 | ·
53 | CCOc1ccc(NC(=O)CSc2oc(-c3ccc(F)cc3)nc2S(=O)(=O)c2ccc(C)cc2)cc1 | 105 | -65
54 | O=C1CCC(=O)N1CCC(c1ccccc1)c1ccco1 (centres undefined) | 102 | 6
55 | COc1ccc(/C=N/NC(=O)OC(C)(C)C)cc1OC | · | -73
56 | O=C(c1cc2n(n1)CCCN(Cc1ccc(F)cc1)C2=O)N1CCN(c2ccccn2)CC1 | 104 | -19

nr | Sa growth inh | Sa growth inh second temp
49 | · | ·
50 | 110 | 97
51 | 98 | 103
52 | 98 | 64
53 | 97 | 99
54 | 89 | 99
55 | 93 | 95
56 | · | ·

Structural class, the compounds so far containing a thiophene ring, fused or not (4)
nr | SMILES | GIV Gai3 FP | HCMV NEC inh
7 | CCN(CC)C(=O)c1sc(NC(=O)c2c(-c3ccccc3)noc2C)c(C(=O)OC(C)C)c1C | 107 | -3
11 | CCOC(=O)c1c(N)sc(N)c1C(=O)OCC | 107 | -19
14 | O=C(NCC(c1cccs1)N1CCOCC1)c1cc(F)cc(F)c1 (centres undefined) | · | 4
47 | Cc1nn(C(C)(C)C)c2c1C(c1ccsc1)C1=C(CCCC1=O)N2 (centres undefined) | · | -18

nr | Sa growth inh | Sa growth inh second temp
7 | · | ·
11 | 52 | 37
14 | 111 | 96
47 | 96 | 91

More compounds:
nr | SMILES | GIV Gai3 FP | HCMV NEC inh
57 | O=C(NCCc1ccc(Cl)cc1)c1ccc2c(c1)N(Cc1ccccc1F)C(=O)c1ccccc1S2(=O)=O | 104 | -12
58 | CC(=O)Nc1ccc(SCC(=O)c2cc(C)n(-c3nccs3)c2C)cc1 | · | -29
59 | Cc1cc(Oc2cc(Cl)cc(Cl)c2)nc(-c2ccccn2)n1 | 104 | -1
60 | Cc1c(C(=O)Nc2ccccc2Cl)sc2ncnc(N(C)C3CCCCC3)c12 | 110 | ·
61 | CCc1cccc(NC(=O)CC(c2ccc(OC)cc2)N2Cc3ccccc3C2=O)c1 (centres undefined) | 99 | ·
62 | COC(=O)c1ccc(COC(=O)c2ccc(OCc3c(C)noc3C)cc2)cc1 | · | -16
63 | Cc1cc(-c2ccc(C)c(S(=O)(=O)Nc3ccc(F)c(F)c3)c2)n[nH]1 | 112 | 9
64 | CS(=O)(=O)NC(c1ccccc1)c1ccccc1 | · | -15

nr | Sa growth inh | Sa growth inh second temp
57 | 111 | 97
58 | 106 | 96
59 | 109 | 102
60 | 120 | 86
61 | 118 | 84
62 | 103 | 93
63 | · | ·
64 | 90 | 84

Additional compounds
nr | SMILES | GIV Gai3 FP | HCMV NEC inh
65 | CCOC(=O)c1sc(SC)c2c1CCCC21SCCS1 | 100 | -21
66 | CCCN(CC(=O)Nc1cc(C)on1)S(=O)(=O)c1cccc(C(F)(F)F)c1 | · | -18
67 | Cc1ccc(S(=O)(=O)Nc2c(C)nn(C)c2C)cc1 | 104 | -5
68 | CC(=O)Nc1cccc(OC(=O)c2ccoc2C)c1 | · | 9
69 | Cc1cc(C(=O)CO/N=C/c2ccco2)c(C)n1-c1ccc(OC(F)F)cc1 | · | -54
70 | O=C(NCc1ccc(Cl)cc1)c1ccc2oc(=O)n(Cc3ccccc3)c2c1 | 107 | ·
71 | N#CC1=C(N)/C(=C\c2ccc(Cl)c(Cl)c2)SC1=N | · | -29
72 | Cc1ccc(S(=O)(=O)n2c(=O)sc3ccccc32)cc1 | 97 | ·

nr | Sa growth inh | Sa growth inh second temp
65 | 90 | 88
66 | 85 | 74
67 | 104 | 96
68 | 98 | 102
69 | 72 | 93
70 | 203 | 101
71 | 79 | 55
72 | 118 | 88

Arranged by the number under Sa growth inh (highest first): 5 of the compounds above
cpd | structure | GIV Gai3 FP | Sa growth inh | Sa growth inh second temp
70 | O=C(NCc1ccc(Cl)cc1)c1ccc2oc(=O)n(Cc3ccccc3)c2c1 | 107 | 203 | 101
68 | CC(=O)Nc1cccc(OC(=O)c2ccoc2C)c1 | · | 98 | 102
66 | CCCN(CC(=O)Nc1cc(C)on1)S(=O)(=O)c1cccc(C(F)(F)F)c1 | · | 85 | 74
71 | N#CC1=C(N)/C(=C\c2ccc(Cl)c(Cl)c2)SC1=N | · | 79 | 55
69 | Cc1cc(C(=O)CO/N=C/c2ccco2)c(C)n1-c1ccc(OC(F)F)cc1 | · | 72 | 93

Continuation:
nr | SMILES | GIV Gai3 FP | HCMV NEC inh
73 | O=C(O)c1c(CNCCc2ccco2)c2ccccc2n1Cc1ccccc1 | 97 | -28
74 | Cc1ccccc1NC(=O)Nc1nnc(N(C)Cc2ccccc2)s1 | 101 | 6
75 | COc1ccc(C2CC(=O)NC(SCC(=O)N3CCc4ccccc4C3)=C2C#N)cc1 (centres undefined) | · | -14
76 | CN(C(=O)COC(=O)c1cc(S(=O)(=O)N2CCOCC2)ccc1O)c1ccccc1 | · | 0

nr | Sa growth inh | Sa growth inh second temp
73 | 102 | 83
74 | 91 | 88
75 | 113 | 88
76 | 96 | 96
